# TRPML1 agonist = human mucolipin-1 channel agonism | Q9GZU1 | 0.12% of 410,000 active | TRPML1-expressing cells, Ca2+ dye fluorescence, FDSS; host cell line not named in the record; reference of the full effect not given here | activation, % (concentration not given with the values); in the data active = activation above about 50%; inconclusive = about 30% to 50%; inactive = below about 30%; note: 0% is about no effect; the text of the record puts the active cut at 80%
# Target sequence (Q9GZU1 whole entry, looked up): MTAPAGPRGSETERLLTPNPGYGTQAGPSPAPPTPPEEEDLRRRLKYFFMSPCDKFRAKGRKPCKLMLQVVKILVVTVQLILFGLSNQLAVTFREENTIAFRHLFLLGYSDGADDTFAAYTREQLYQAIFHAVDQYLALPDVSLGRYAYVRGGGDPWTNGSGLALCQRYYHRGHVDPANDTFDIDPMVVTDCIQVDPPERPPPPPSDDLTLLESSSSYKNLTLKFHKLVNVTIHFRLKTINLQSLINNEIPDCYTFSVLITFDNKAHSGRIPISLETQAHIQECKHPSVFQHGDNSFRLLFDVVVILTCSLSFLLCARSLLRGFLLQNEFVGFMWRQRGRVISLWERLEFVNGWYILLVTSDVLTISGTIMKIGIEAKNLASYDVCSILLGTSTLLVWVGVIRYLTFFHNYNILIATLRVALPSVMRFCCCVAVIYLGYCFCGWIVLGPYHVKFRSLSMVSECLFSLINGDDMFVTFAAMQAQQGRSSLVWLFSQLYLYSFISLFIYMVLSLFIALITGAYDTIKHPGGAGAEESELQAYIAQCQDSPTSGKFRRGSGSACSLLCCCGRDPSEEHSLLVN
#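 Agonist activity was taken from a 110 s kinetic Ca2+ dye read on the FDSS after pinning compounds onto TRPML1-DL cells. The cells were seeded at 1,500/well with Tet inducer, incubated about 16 h, then dye-loaded at room temperature.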
# PINK1 modulator = PINK1 expression modulation | 0.2% of 410,000 active | PINK1 immunofluorescence, high-content cytometry, 24 h | AID 624263 | Potency, µM (highest dose often 76.6 µM), without a hit: at the top dose activation (PINK1 increase), usual class: activators; active = well fitted activation curve with a large enough effect; inconclusive = small, poorly fitted or top-dose-only effect; inactive = flat fitted curve, though single readings scatter; cell line not stated here;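 note: potency is the fitted concentration of half-maximal effect; % of control where 0% means no effect; nearly all actives have a fitted effect of over 65% in size; a mitochondrial uncoupler was the plate control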
#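 Compound titrations (5 concentrations, 24 h) on a stable cell line; DMSO and CCCP controls. Endpoint: fixed-cell PINK1 immunofluorescence with mitochondrial, cell and nuclear markers, scanned by microplate cytometer.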
# Six1-Eya2 blk = Six1/Eya2 interaction inhibition | activity change, % (test concentration not listed) | AlphaScreen GST-Six1/His-Eya2 binding, biochemical; active compounds read low; control for the full effect not named in the record | 0.56% of 360,000 active; in the data active = activity change below about -65%; inconclusive = about -30% to -65%; inactive = above about -30%; note: % is set by controls: 0 for no effect and ±100 for the full control effect
#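 AlphaScreen with GST-Six1 and His-Eya2 (5X mix: 250 nM and 500 nM), glutathione donor and nickel acceptor beads; buffer 50 mM Tris pH 8.0, 300 mM NaCl, 1 mM TCEP; 1 h at 37 C in the dark.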
# CtBP-E1A inh = CtBP/E1A binding inhibition | AlphaScreen GST-E1A/His-CtBP binding, 1536-well; active compounds read low; control for the full effect not named in the record | AID 651724 | 0.49% of 340,000 active | activity change, % (test concentration not listed); in the data active means activity change below about -65%; inconclusive means about -30% to -65%; inactive means above about -30%; note: % is set by controls: 0 for no effect and ±100 for the full control effect
#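 GST-E1A and His-tagged CtBP (125 nM each as 5X stock) were preincubated with pin-transferred compound for 2 h at 37 °C in the dark, then glutathione donor and nickel acceptor beads were added for 1 h before AlphaScreen reading.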
# D2 PAM = positive allosteric modulators of human D2 dopamine receptor; P14416; DiscoveRx D2 beta-arrestin cells, luminescence, 90 min; 100% = 57 uM dopamine signal; potentiation, % (concentration not given with the values); 0.23% of 360,000 active; AID 624464; active = potentiation of 50% or more; inconclusive = 30% to 50%; inactive = 30% or less;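 note: compound concentration not given in the record; tested on top of an EC20 dose of dopamine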
# Target sequence (P14416 whole entry, looked up): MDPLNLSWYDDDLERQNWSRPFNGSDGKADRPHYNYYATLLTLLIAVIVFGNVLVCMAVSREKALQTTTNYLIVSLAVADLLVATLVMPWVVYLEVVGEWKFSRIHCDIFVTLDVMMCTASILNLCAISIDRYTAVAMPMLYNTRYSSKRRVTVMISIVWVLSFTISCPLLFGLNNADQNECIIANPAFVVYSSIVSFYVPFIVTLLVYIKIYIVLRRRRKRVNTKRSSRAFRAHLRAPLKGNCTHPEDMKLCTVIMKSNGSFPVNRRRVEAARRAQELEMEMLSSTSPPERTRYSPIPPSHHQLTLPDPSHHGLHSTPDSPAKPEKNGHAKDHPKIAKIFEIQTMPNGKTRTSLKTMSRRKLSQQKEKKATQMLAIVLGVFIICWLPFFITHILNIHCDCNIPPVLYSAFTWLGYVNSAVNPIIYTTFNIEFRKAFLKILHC
#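 D2 cells co-treated with compound plus 50 nM dopamine (EC20) for 90 min at 37 deg C to detect potentiation. Beta-arrestin recruitment was read as enzyme-fragment luminescence after 1 h at ambient temperature. Full response was set by 57 uM dopamine.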
# D2 ag = agonists of human D2 dopamine receptor (beta-arrestin) | DiscoveRx PathHunter D2 beta-arrestin, luminescence, 90 min; 100% = 57 uM dopamine signal | P14416 | 0.084% of 360,000 active | activation, % (concentration not given with the values) | AID 624465; in the data active = activation above about 40%; inconclusive = about 15% to 40%; inactive = below about 15%; note: compound concentration not given in the record; the text of the record calls up to 30% inactive
#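 Agonist mode: compounds alone added to overnight-plated D2 PathHunter cells for 90 min at 37 C, with 57 uM final dopamine (EC100) defining full response. Beta-arrestin recruitment detected by chemiluminescent reagent, read after 1 h at ambient temperature.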
# * hit, by the source's call; ? = inconclusive; / = not tested or not shown; [ ] = dose if it differs, or a comment. Compounds as they come. About 1.3% of those tested had a hit in this group.
cpd	mol	TRPML1 agonist	PINK1 modulator	Six1-Eya2 blk
1	CSc1nccc(Oc2cncc(Cl)c2)n1	0.0	12%	12
2	CC1=CC2(O)OCCN(CCO)C2=CC1=O (configuration not stated)	5.2	5.0%[38.3 µM]	-2
3	Cn1nnc2cc(C(=O)Nc3ccc4ccccc4c3)ccc21	-0.3	2.2%	1
4	COc1cccc(Nc2nc3ccccc3n3nnnc23)c1	3.9	3.7%	7
5	Cc1nnsc1C(=O)NC(C)C12CC3CC(CC(C3)C1)C2 (configuration not stated)	-0.2	/	0
6	Cc1ccsc1C(=O)NNC(=O)c1csc(N2CCOCC2)n1	-0.3	5.8%	3
7	Cc1ccc(C)c(OCC(=O)N/N=C/c2ccc(N3CCOCC3)cc2)c1	0.5	1.0%	-2
8	N#C/C(=C\c1ccncc1)c1nc2c(s1)CCCC2	0.1	-0.7%	11
9	O=Cc1c(Nc2cccc(C(F)(F)F)c2)nc2ccccn2c1=O	-1.1	6.1%	6
10	O=[N+]([O-])c1cccc(-n2nncc2-c2ccccc2)c1	-0.5	-1.0%	-13

cpd	CtBP-E1A inh	D2 PAM	D2 ag
1	2	-4	-2.3
2	-8	29	4.7
3	4	-5	-1.5
4	-4	11	-0.1
5	8	-8	1.0
6	3	-11	-7.7
7	2	-9	0.5
8	/	-10	5.5
9	8	-12	1.3
10	-25	0	-3.7

# Next section; the last 2 above are carried over.
cpd	mol	TRPML1 agonist	PINK1 modulator	Six1-Eya2 blk
9	O=Cc1c(Nc2cccc(C(F)(F)F)c2)nc2ccccn2c1=O	-1.1	6.1%	6
10	O=[N+]([O-])c1cccc(-n2nncc2-c2ccccc2)c1	-0.5	-1.0%	-13
11	Cc1cc2c(c(=O)n1CCc1ccccc1)C(C(C)C)C(C#N)=C(N)O2 (configuration not stated)	0.1	15%	2
12	COc1ccc(-n2ccnc2SCC(=O)NCc2ccccc2)c(OC)c1	-0.1	0.5%	-1
13	Cc1ccc(NC(=O)C2OCCc3ccccc32)cc1Cl (configuration not stated)	0.9	4.2%	8
14	CNc1nc(N)c([N+](=O)[O-])c(Nc2cccc(F)c2)n1	0.7	1.7%	-15
15	N/C(=N\OS(=O)(=O)c1ccc2ccccc2c1)c1ccccn1	0.7	1.2%	?
16	CC(=O)c1ccc(OCCCC(=O)OCC(=O)Nc2ccc3[nH]c(=O)[nH]c3c2)cc1	0.3	-2.2%	-20
17	Cc1cc(C(=O)COc2ccccc2C#N)c(C)n1C1CC1	0.5	-1.8%	-20
18	CC(=O)OCC1OC(COC(C)=O)(c2ccc(C)cc2)C(OC(C)=O)C1OC(C)=O (configuration not stated)	1.0	2.2%	5
19	Clc1ccc(Cn2cccn2)cn1	-0.9	1.2%	29
20	COc1ccc(NC(=O)c2ccc(N(C)S(C)(=O)=O)cc2)cc1OC	-0.1	1.6%[38.3 µM]	-1

cpd	CtBP-E1A inh	D2 PAM	D2 ag
9	8	-12	1.3
10	-25	0	-3.7
11	1	-7	-1.1
12	1	-8	-2.5
13	9	-5	-2.9
14	-8	-8	-0.8
15	?	-3	-3.7
16	4	-4	-3.0
17	-4	-10	-3.0
18	-3	-5	2.3
19	0	3	-5.1
20	7	-1	-1.8

# (cont.)
cpd	mol	TRPML1 agonist	PINK1 modulator	Six1-Eya2 blk
21	CC(C)c1ccc(/C=N/NC(=O)c2cccc(S(=O)(=O)N3CCOCC3)c2)cc1	1.0	1.2%	11
22	CCCNC(=O)C1CC(=O)N(c2ccc(OCC(=O)Nc3cccc(C)c3C)cc2)C1 (configuration not stated)	0.6	2.1%	2
23	Cc1sc2nc(CN(Cc3cccs3)C(=O)C3CC3)[nH]c(=O)c2c1C	0.3	0.7%	1
24	CC(C)(C)c1ccc(C(=O)N/N=C/c2cccc(Cl)c2)cc1	-0.1	13%[38.3 µM]	-3
25	CC(=O)Nc1sc2c(c1C(c1cccc(Cl)c1)N1CCN(CCO)CC1)CCCC2 (configuration not stated)	1.3	0.7%	-8
26	COc1ccc(S(=O)(=O)N2CCCN(C)CC2)cc1	0.4	-2.3%	-8
27	O=S1(=O)N[C@@H](Cc2ccccc2)COc2cc(N3CCSCC3)ccc21	-0.8	-0.3%	-13
28	Cc1cnc(C(=O)Nc2ccc(F)c(F)c2)cn1	0.1	-0.9%	6
29	O=C(O)C1CCC1C(=O)Nc1nc(-c2ccc(Cl)s2)cs1 (configuration not stated)	1.3	1.7%	2
30	COc1cc(S(=O)(=O)N2CCCCC2)ccc1NC(=O)/C=C/c1ccccc1	1.0	-0.9%[38.3 µM]	-12

cpd	CtBP-E1A inh	D2 PAM	D2 ag
21	2	-1	5.5
22	0	-1	-7.3
23	/	-11	-4.2
24	2	-8	-3.0
25	-21	-6	-0.8
26	3	-6	-3.1
27	-7	/	/
28	7	-12	0.9
29	4	-2	-3.0
30	-8	-16	-2.1

# (continued)
cpd	mol	TRPML1 agonist	PINK1 modulator	Six1-Eya2 blk
31	Cn1ncc(Cl)c1C(=O)NCc1ccc(Cl)cc1	-0.1	3.7%	10
32	O=C(/C=C/c1ccccc1)NNC(=O)c1cccc(Cl)c1	0.2	16%[38.3 µM]	4
33	Cc1ccc(C)c(N2CCN(CCCNC(=O)Cn3cccc3C(=O)c3ccccc3C)CC2)c1	0.1	-1.3%	-10
34	Cc1ncoc1C(=O)N1CCc2c([nH]c3ccccc23)C1C(C)(C)C (configuration not stated)	0.3	-0.9%	0
35	COCCn1c(SCC(=O)Nc2ccc3c(c2)CCC3)nc2ccccc2c1=O	0.2	0.2%	12
36	Cn1c(CSc2nc3ccccc3s2)nc2ccccc21	0.8	/	-2
37	CC(C)CC1C(=O)N(Cc2cn(Cc3ccco3)nn2)CCS(=O)(=O)N1Cc1ccc(-c2cccc(CO)c2)cc1 (configuration not stated)	-0.1	-0.2%	-5
38	O=C(NCc1csc(-c2cccs2)n1)Nc1cccc(Cl)c1	2.2	7.1%	5
39	COc1ccc(Nc2cc(C)c3ccccc3n2)cc1	1.3	5.0%	-1
40	COc1ccc(OCc2nnc(SCC(=O)NCc3ccco3)o2)cc1	-0.1	-0.6%	-2

cpd	CtBP-E1A inh	D2 PAM	D2 ag
31	-3	2	-3.7
32	-4	-11	-2.2
33	-10	-18	2.7
34	4	-5	-2.7
35	/	-9	8.7
36	1	-19	0.9
37	3	2	1.7
38	10	-8	3.0
39	-4	-14	-4.6
40	1	-10	-3.2

# Other compounds
cpd	mol	TRPML1 agonist	PINK1 modulator	Six1-Eya2 blk
41	Cc1cc(C)cc(N(CC(=O)NC2CCCCC2)C(=O)c2csnn2)c1	-1.6	0.2%	-16
42	CC(C)CCNC(=O)CN(CCCN1CCOCC1)C(=O)Cn1nnc(-c2ccc(F)cc2)n1	0.0	-1.6%[38.3 µM]	5
43	CCC/C(=N/NC(=O)c1nnn(-c2nonc2N)c1CN1CCCCC1)c1ccccc1	0.9	0.7%	-1
44	COc1cc(C(=O)NC2CCCCC2)ccc1OC1CCN(C(C)=O)CC1	-0.4	1.6%	4
45	O=C1CCC([N+](=O)[O-])C(c2ccc(Cl)cc2)N1 (configuration not stated)	-0.1	-1.3%	1
46	CSc1nc2nc(C)cc(-c3ccccc3)n2n1	1.3	-2.3%	-9
47	CCNC(=O)c1c(C)nc2ccccn12	-0.6	1.9%	-8
48	O=C(O)CSCC(=O)Nc1ccccn1	-0.2	-0.5%	0
49	c1ccc(-c2nn[nH]n2)nc1	5.1	-0.2%	-87*
50	CCN1CCN(c2nc3ccccn3c(=O)c2C=O)CC1	/	0.7%	2

cpd	CtBP-E1A inh	D2 PAM	D2 ag
41	-2	-1	-4.2
42	6	-13	-1.6
43	4	-6	-3.1
44	8	-1	7.0
45	0	1	-2.0
46	-5	-15	-5.1
47	-1	-8	-1.8
48	3	-4	-5.0
49	-72*	-4	-5.5
50	0	-24	-6.2

# The list continues.
cpd	mol	TRPML1 agonist	PINK1 modulator	Six1-Eya2 blk
51	CCc1ccc(CNC(=O)C2CCN(S(=O)(=O)N3CCCC3)CC2)cc1	-0.6	-0.9%	4
52	COc1ccc2cc(C(=O)C3CCCN(Cc4cnc(C)s4)C3)ccc2c1 (configuration not stated)	0.1	-0.9%	-6
53	CCN(c1cccc(C)c1)S(=O)(=O)c1c(C)[nH]c(=O)[nH]c1=O	0.5	0.2%[38.3 µM]	4
54	CCOC(=O)C1(C)CCN1C(=O)c1ccc(OC)cc1 (configuration not stated)	-0.9	0.5%	0
55	CCNC(=O)c1ccc(CSc2ccc(Cl)cc2)cc1	0.8	6.7%	11
56	CCC1CSC(=Nc2ccc(C)cc2)N1C(=O)CN1C(=O)NC2(CCCC2)C1=O (configuration not stated)	0.0	4.7%	-7
57	CNCCCOc1ccc(Cl)cc1C(C)(C)C	0.0	-0.6%	4
58	Cc1ccc(C(NC(=O)Nc2ccccn2)C(Cl)(Cl)Cl)cc1F (configuration not stated)	2.0	15%	10
59	CCOc1ccc(C(=O)CN2CCN(S(=O)(=O)c3ccc(Br)cc3)CC2)cc1	-0.5	3.8%	-8
60	O=C1NN(c2ccc(F)cc2)C(=O)/C1=C\C=C\c1ccco1	0.3	2.4%	17

cpd	CtBP-E1A inh	D2 PAM	D2 ag
51	-5	-9	2.9
52	-18	-2	0.5
53	-1	-7	0.3
54	1	-2	-5.3
55	/	-7	4.2
56	-2	1	-4.0
57	-3	-18	-4.1
58	-3	-2	1.6
59	7	-12	-2.3
60	13	-14	0.6

# (further entries)
cpd	mol	TRPML1 agonist	PINK1 modulator	Six1-Eya2 blk
61	Cc1ccn2cc(CNC(=O)c3ccc(Br)o3)nc2c1	-0.9	0.3%	-7
62	Cc1cccn2c(=O)c(C=NCc3ccco3)c(Nc3ccc(SC(F)F)cc3)nc12	-0.5	-2.2%	22
63	C[C@H](CO)N1C[C@H](C)[C@@H](CN(C)Cc2ccc(Cl)c(Cl)c2)OCc2cnnn2CCCC1=O	1.0	0.2%	1
64	CCn1c(Cc2ccccc2)nnc1SCC(=O)Nc1ccc(N2CCOCC2)c(Cl)c1	0.1	1.3%	0
65	CCCOc1ccc(C2C(C(=O)c3ccc(C)o3)=C(O)C(=O)N2CCN2CCOCC2)cc1OC (configuration not stated)	-0.2	-0.7%	0
66	CCC1(c2ccccc2)NC(=O)N(CC(=O)N(C)CC(=O)Nc2ccc(F)c(F)c2F)C1=O (configuration not stated)	1.4	-2.5%	6
67	COc1ccc2c(c1)nc(SCC(O)c1ccccc1)n2C (configuration not stated)	3.3	-0.2%	9
68	O=C(CNC(=O)c1ccc(Br)o1)NC1CCCCC1	-0.4	-0.8%	7
69	COc1ccc(OC)c(NC(=O)CSc2nnc(Cn3c(=O)sc4ccccc43)n2C)c1	0.5	-2.2%	1

cpd	CtBP-E1A inh	D2 PAM	D2 ag
61	-9	-7	-3.4
62	25	-10	-5.5
63	0	3	-7.6
64	5	-4	-1.1
65	1	-15	-4.6
66	-1	1	0.4
67	-18	-8	-0.8
68	3	-2	-2.6
69	1	-11	0.0

# Part of the list above, with two lines to a compound:
# Each structure is followed by: TRPML1 agonist	PINK1 modulator	Six1-Eya2 blk	CtBP-E1A inh	D2 PAM	D2 ag
57: CNCCCOc1ccc(Cl)cc1C(C)(C)C
    0.0	-0.6%	4	-3	-18	-4.1
58: Cc1ccc(C(NC(=O)Nc2ccccn2)C(Cl)(Cl)Cl)cc1F (configuration not stated)
    2.0	15%	10	-3	-2	1.6
